Screening data deposited in PubChem BioAssay by National Center for Advancing Translational Sciences (NCATS).
VACV mCherry inh – qHTS for Stage-Specific Inhibitors of Vaccinia Orthopoxvirus: mCherry Reporter Primary qHTS. actives 0.63% (n = 310,000). AID 720579, 2013. Potency, µM (series often up to 36.5 µM), for the others: at the top dose activity change, negative = inhibition, actives largely listed as inhibitors. Vaccinia virus mCherry reporter infection, fluorescence; about a quarter of the inactives have no number; active = well fitted inhibition curve with a large enough effect; inconclusive = small, poorly fitted or top-dose-only effect; inactive = no such curve, though single readings can be large or run the other way; tested in A549 cells; further: nearly all actives have a fitted effect of over 35% in size; inactives centre near -10
VACV Venus inh – qHTS for Stage-Specific Inhibitors of Vaccinia Orthopoxvirus: Venus Reporter Primary qHTS; Vaccinia virus Venus reporter expression, fluorescence; actives 0.46% (n = 330,000); AID 720580, 2013; Potency, µM (highest dose often 36.5 µM), without a hit: at the highest dose activity change, negative = inhibition, most hits filed as inhibitors; active means well fitted inhibition curve with a large enough effect; inconclusive means small, poorly fitted or top-dose-only effect; inactive means no such curve, though single readings can be large or run the other way; tested in A549 cells; further: nearly all actives have a fitted effect of over 30% in size; inactives centre near -10
* = called active by the depositor; [ ] = another dose, or the depositor's remark. On the % scale 0 is the no-effect control and ±100 the full control effect; potency means the concentration at half of the fitted maximal effect. Rows are unselected; 0.82% or so of the library scored in one or more.

Screening Cc1ccc(NN=Nc2nc3c([nH]2)c(=O)n(C)c(=O)n3C)cc1 returned VACV mCherry inh inactive and VACV Venus inh -5%.
Screening Cn1c(C23CC4CC(CC(C4)C2)C3)n[nH]c1=S returned VACV mCherry inh inactive and VACV Venus inh -16%.
For O=C(c1ccc(CNS(=O)(=O)c2ccccc2)cc1)N1CCN(c2ccccn2)CC1 the results were VACV mCherry inh inconclusive and VACV Venus inh -14%.
For Cc1ccccc1S(=O)(=O)Cc1ccc(C(=O)NC2CCCCCC2)o1 the results were VACV mCherry inh inactive and VACV Venus inh -15%.
`O=C(NNC(=S)NCc1ccccc1)c1ccc(Br)cc1` gave VACV mCherry inh -8% and VACV Venus inh -5%.
Screening COc1ccccc1-c1nnc(C2CCN(S(=O)(=O)c3ccc(F)c(C)c3)CC2)o1 returned VACV mCherry inh -23% and VACV Venus inh -23%.
`COc1ccc(C(C(=O)NC(C)(C)C)N(Cc2ccco2)C(=O)CCC(=O)Nc2cc(C)on2)cc1` (configuration not stated) gave VACV mCherry inh -9% and VACV Venus inh 7%.
CCN(Cc1ccccc1)c1nc2c(S(=O)(=O)c3ccccc3)nnn2c2ccc(Cl)cc12 was read as VACV mCherry inh -7%[7.34 µM] and VACV Venus inh -6%[7.34 µM].
For COc1ccc(CCNC(=O)c2ccc3c(c2)N=C(C)c2cc(C)ccc2S3)cc1OC the results were VACV mCherry inh inconclusive and VACV Venus inh inconclusive.
For CSc1ccccc1C(=O)C1CCCN(Cc2c(C)n(C)n(-c3ccccc3)c2=O)C1 (configuration not stated) the results were VACV mCherry inh -5% and VACV Venus inh -2%.
`OC(CC#CCN1CCCCC1)(c1ccccc1)c1ccccc1` gave VACV mCherry inh -12% and VACV Venus inh -18%.
`O=C(Nc1ccc2[nH]c3c(c2c1)CCCC3)c1ccco1` gave VACV Venus inh -28%.
Cn1cc(C(=O)c2ccccc2)c2ccccc21 was read as VACV mCherry inh -6% and VACV Venus inh -27%.
Screening Cc1ccccc1NC(=O)Cn1nc(C(=O)O)c2ccccc2c1=O returned VACV mCherry inh inactive and VACV Venus inh -8%.
For C=CCn1c(CNC(=O)c2ccco2)nnc1SCC(=O)c1ccccc1 the results were VACV mCherry inh inactive and VACV Venus inh 8%.
`Cc1ccc(-c2nc(=S)c3c(n2Cc2cccnc2)CC(C)(C)OC3)cc1` gave VACV mCherry inh inactive and VACV Venus inh -1%.
CC(=O)OC1[C@H](Oc2c(O)c(C)c3c4c2[C@@H](C)CC[C@@H]4[C@@H](C)C[C@@H]3C=C(C)C)OC[C@@H](O)[C@@H]1O (some centres not stated) was read as VACV mCherry inh inactive and VACV Venus inh -3%.
C=CCn1c(SCC(=O)OCC)nc(C(F)(F)F)cc1=O was read as VACV mCherry inh -1% and VACV Venus inh inconclusive.
Screening O=C(COC(=O)CNC(=O)c1ccccc1)Nc1ccccc1Cl returned VACV mCherry inh inactive and VACV Venus inh 1%.
`CCc1cc2cc(C)cc(C)c2nc1SCC(=O)Nc1cc(C)on1` gave VACV mCherry inh -4% and VACV Venus inh -16%.
Screening Cc1ccc(NC(=O)CSc2ccccc2)cc1S(=O)(=O)N1CCOCC1 returned VACV mCherry inh -21% and VACV Venus inh -12%.
Cc1sc2ncnc(SCC(=O)N3CCCC3)c2c1C was read as VACV Venus inh -27%.
For CCOC(=O)N1CCc2c(sc(NC(C)=O)c2C(N)=O)C1 the results were VACV mCherry inh inactive and VACV Venus inh -10%.
Screening COc1ccc(/C=C/C(=O)N2CCN(c3ccccn3)CC2)c2ccccc12 returned VACV mCherry inh -6% and VACV Venus inh -12%.
Screening CC1(C)CC(=O)c2cc(C(=O)Nc3ccc(Cl)cc3)c(=O)[nH]c2C1 returned VACV mCherry inh 6% and VACV Venus inh 23%.
Screening Nc1ccccc1/C=C/c1ccccc1N returned VACV mCherry inh inconclusive and VACV Venus inh -21%.
Screening CC(O)(c1cccnc1)c1nc(-c2ccc3ccccc3c2)cs1 (configuration not stated) returned VACV mCherry inh -6% and VACV Venus inh -16%.
`COc1cc(C2C(C(=O)c3ccc(C)o3)=C(O)C(=O)N2c2cc(C)on2)cc(Br)c1O` (configuration not stated) gave VACV mCherry inh -1%[1.46 µM] and VACV Venus inh -9%.
For Cc1scc(C(=O)Nn2cnnc2)c1-c1ccccc1 the results were VACV mCherry inh -13% and VACV Venus inh -3%.
`CCC(C)n1c(O)c(/C=N/Nc2nc3c(c(=O)n(C)c(=O)n3C)n2C)c(=O)[nH]c1=S` (configuration not stated) gave VACV mCherry inh -24% and VACV Venus inh 14%.
`CC1(C(=O)Nc2ccc3c(c2)OCCO3)CCN1C(=O)C1(c2ccc(Cl)cc2)CCC1` (configuration not stated) gave VACV mCherry inh 12% and VACV Venus inh -2%.
For Cc1ccc(C(=O)C(C)OC(=O)C2=COCCO2)cc1C (configuration not stated) the results were VACV mCherry inh -9% and VACV Venus inh -5%.
`O=C(CCn1c(=O)[nH]c2ccsc2c1=O)N1CCN(Cc2ccc3c(c2)OCO3)CC1` gave VACV mCherry inh -7% and VACV Venus inh -4%.
`COc1cccc(OCC(=O)N2CCC3(CC2)CC(=O)c2ccccc2O3)c1` gave VACV mCherry inh -2% and VACV Venus inh -19%.
Screening O=C(CCCSc1nc2ccccc2s1)NCc1ccco1 returned VACV mCherry inh -23% and VACV Venus inh -10%.
For CC[C@H](C)NC(=O)c1ccc(Cn2c(=S)[nH]c3c([nH]c4ccc(OC)cc43)c2=O)cc1 the results were VACV mCherry inh -19% and VACV Venus inh -12%.
CCOC(=O)c1c(NC(=S)Nc2ccccc2)sc(C)c1C was read as VACV mCherry inh -12% and VACV Venus inh -5%.
Screening COc1ccc(C(=O)N/C(=C\c2ccc3c(c2)OCO3)C(=O)Nc2ccc(C(=O)O)cc2)cc1 returned VACV mCherry inh 4% and VACV Venus inh -3%.
`Cc1c(CCO)c(=O)[nH]n1S(=O)(=O)c1ccccc1` gave VACV mCherry inh 0% and VACV Venus inh -3%.
CCC(Cc1ccccc1)NC(=O)CCc1ccccc1 (configuration not stated) was read as VACV mCherry inh -25% and VACV Venus inh -14%.
CCOc1cc2c(cc1O)CCC1C2CCC2(C)C(O)CCC12 (configuration not stated) was read as VACV mCherry inh inconclusive and VACV Venus inh inconclusive.
Screening COC(=O)[C@@]1(Sc2ccc(C)cc2)CC(=O)N[C@@H]1c1ccco1 returned VACV mCherry inh -8% and VACV Venus inh -16%.
CCOc1cc(N2CCOCC2)c(OCC)cc1NC(=O)CN1CCCC1 was read as VACV mCherry inh inactive and VACV Venus inh -4%.
Screening CCC1(CCCC(=O)c2ccc(F)cc2)C(=O)NC(=S)NC1=O returned VACV mCherry inh -4% and VACV Venus inh -14%.
Screening CC(C)C[C@H](NC(=O)c1nc[nH]c1C(=O)N[C@@H](CC(C)C)C(=O)OCc1ccccc1)C(=O)OCc1ccccc1 returned VACV mCherry inh inconclusive and VACV Venus inh inconclusive.
For CCC1(CC)NC(=O)N(CC(=O)OCC(=O)c2ccccc2OC)C1=O the results were VACV mCherry inh -21% and VACV Venus inh -5%.
Screening Cc1ccc(SCc2cc(=O)[nH]c(N3CCN(Cc4ccccc4)CC3)n2)cc1 returned VACV Venus inh -5%.
For COc1cccc(Nc2nc(-c3sc(NC(=O)CC(C)C)nc3C)cs2)c1 the results were VACV mCherry inh inconclusive and VACV Venus inh inconclusive.
`Cc1nnc(N2CCC(C(=O)NC(C)C)CC2)c2nn(-c3ccc(Cl)cc3)c(C)c12` gave VACV mCherry inh 2% and VACV Venus inh -7%.
For CCc1ccc(C2CC(c3ccccc3Cl)Nc3nc(N)nn32)cc1 (configuration not stated) the results were VACV mCherry inh -16% and VACV Venus inh -6%.
`Cn1c(-c2ccco2)n[nH]c1=S` gave VACV mCherry inh -7% and VACV Venus inh -22%.
For Cc1cn(C)c(=O)n(C)c1=O the results were VACV mCherry inh 2% and VACV Venus inh -5%.
For O=C(CCC(=O)c1cccs1)NNC(=O)c1cc(Cl)ccc1Cl the results were VACV mCherry inh inactive and VACV Venus inh 4%.
`CCCC(C(=O)Nc1ccc(C)c(S(=O)(=O)N2CCOCC2)c1)c1ccccc1` (configuration not stated) gave VACV mCherry inh -26% and VACV Venus inh -13%.
CC(C)(O)C#Cc1cccc(-c2nc(C(=O)NCCCN3CCOCC3)cc3c2[C@H](CCO)N(S(=O)C(C)(C)C)C3)c1 (some centres not stated) was read as VACV mCherry inh 12% and VACV Venus inh 11%.
Screening COc1ccc(CCC(=O)NNC(=O)Nc2ccc(C(C)=O)cc2)cc1 returned VACV mCherry inh -7% and VACV Venus inh -10%.
`CCOc1ccc(N2C(=O)CC(/C=C3/N(C)c4ccccc4C3(C)C)C2=O)cc1` (configuration not stated) gave VACV mCherry inh -29% and VACV Venus inh -6%.
`Cc1ccc(Cl)cc1NS(=O)(=O)c1cn(C)nc1C` gave VACV mCherry inh -1% and VACV Venus inh -4%.
Screening CC(=O)OC1CC2(O)C3CCC4CC(O)CCC4(C)C3CCC2(C)C1C1=CC(=O)OC1 (configuration not stated) returned VACV mCherry inh 35µM* and VACV Venus inh inconclusive.
Cc1sc2nc(COC(=O)c3cccc(OC(F)F)c3)[nH]c(=O)c2c1C was read as VACV mCherry inh 5% and VACV Venus inh -4%.

Next part; it opens with the three that closed the last part.
`Cc1ccc(Cl)cc1NS(=O)(=O)c1cn(C)nc1C` gave VACV mCherry inh -1% and VACV Venus inh -4%.
Screening CC(=O)OC1CC2(O)C3CCC4CC(O)CCC4(C)C3CCC2(C)C1C1=CC(=O)OC1 (configuration not stated) returned VACV mCherry inh 35µM* and VACV Venus inh inconclusive.
Cc1sc2nc(COC(=O)c3cccc(OC(F)F)c3)[nH]c(=O)c2c1C was read as VACV mCherry inh 5% and VACV Venus inh -4%.
For O=C(CC1CCCC1)NNC(=O)c1ccc(F)cc1 the results were VACV mCherry inh -13% and VACV Venus inh -9%.
For CC1=C(C(=O)Nc2ccccc2)C(c2ccc(Br)cc2)n2nc(CCCO)nc2N1 (configuration not stated) the results were VACV mCherry inh 9% and VACV Venus inh 26%.
Screening Cc1ccc(CCNC(=O)c2ccc3c(c2)N(Cc2ccccc2F)C(=O)c2ccccc2S3=O)cc1 (configuration not stated) returned VACV mCherry inh -12% and VACV Venus inh -16%.
For O=C(Nc1ccc2nc(SCCOc3ccccc3)sc2c1)c1ccccc1F the results were VACV mCherry inh inconclusive and VACV Venus inh inconclusive.
N#C/C(=C\c1ccc([N+](=O)[O-])cc1)C(=O)Nc1ccccc1O was read as VACV mCherry inh -13% and VACV Venus inh -3%.
For Nc1nn2cc(-c3ccccc3)nc2c2ccccc12 the results were VACV mCherry inh -3% and VACV Venus inh -19%.
Screening O=C(CSc1nnc2ccccn12)Nc1ccc2c(c1)OCCO2 returned VACV mCherry inh inactive and VACV Venus inh -6%.
COc1ccc(CNC(=O)C2CCN(S(=O)(=O)c3ccc(SC)cc3)CC2)cc1 was read as VACV mCherry inh -9% and VACV Venus inh -4%.
Cc1ccc(NC(=O)CCC(=O)N/N=C/C=C/c2ccccc2)cc1 was read as VACV mCherry inh inactive and VACV Venus inh -15%.
Screening Cc1cccc(Cn2cc(C(=O)Nc3cc(F)ccc3F)ccc2=O)c1 returned VACV mCherry inh -2% and VACV Venus inh 4%.
Screening COc1cc(O)c2c(=O)c3c(OC)c(O)ccc3oc2c1 returned VACV mCherry inh -28% and VACV Venus inh -23%.
`CCOc1ccccc1-n1c(SCC(=O)N(CC)CC)nnc1-c1ccccn1` gave VACV mCherry inh inactive and VACV Venus inh -11%.
For O=C1CC(Nc2ccccc2)C(=O)N1c1ccc(N2CCOCC2)cc1 (configuration not stated) the results were VACV mCherry inh -10% and VACV Venus inh -1%.
For CCCCCCCOc1ccc(-c2ccc(C#N)cn2)cc1 the results were VACV mCherry inh -2% and VACV Venus inh -10%.
`O=C1NN(c2ccc(F)cc2)C(=O)/C1=C/c1cccs1` gave VACV mCherry inh -26% and VACV Venus inh -9%.
Screening O=C(O)CCn1c(-c2ccccc2)cc2ccccc21 returned VACV mCherry inh -1% and VACV Venus inh -5%.
For COCCN(C(=S)Nc1cc(C)cc(C)c1)C(C)c1cccnc1 (configuration not stated) the results were VACV mCherry inh -7% and VACV Venus inh -10%.
For CCCCN(C(=O)NC(=O)Nc1nc2ccc(OC)cc2s1)S(C)(=O)=O the results were VACV mCherry inh -10% and VACV Venus inh -15%.
Screening COc1ccc(-c2coc3c2c(C)cc2oc(=O)c(C)c(C)c23)cc1 returned VACV mCherry inh 0% and VACV Venus inh -3%.
`Cc1ccc(CCNC(=O)C2CCN(S(=O)(=O)c3cccc4nsnc34)CC2)cc1` gave VACV mCherry inh -7% and VACV Venus inh 7%.
Cc1[nH]c(=O)[nH]c(=O)c1S(=O)(=O)N1CCCC1 was read as VACV Venus inh inconclusive.

Five records drawn at random from the list so far, as already listed:
For Cc1scc(C(=O)Nn2cnnc2)c1-c1ccccc1 the results were VACV mCherry inh -13% and VACV Venus inh -3%.
`Cn1c(-c2ccco2)n[nH]c1=S` gave VACV mCherry inh -7% and VACV Venus inh -22%.
Screening COc1ccccc1-c1nnc(C2CCN(S(=O)(=O)c3ccc(F)c(C)c3)CC2)o1 returned VACV mCherry inh -23% and VACV Venus inh -23%.
CCOC(=O)c1c(NC(=S)Nc2ccccc2)sc(C)c1C was read as VACV mCherry inh -12% and VACV Venus inh -5%.
For CCC1(CC)NC(=O)N(CC(=O)OCC(=O)c2ccccc2OC)C1=O the results were VACV mCherry inh -21% and VACV Venus inh -5%.
